Source: PubChem BioAssay (National Center for Advancing Translational Sciences (NCATS))
Menin-MLL FL inh: qHTS Assay for Inhibitors Targeting the Menin-MLL Interaction in MLL Related Leukemias: Competition With Fluorescein Labeled MLL-derived Peptide; Fluorescence polarization, fluorescein-MLL peptide displacement from menin; FP activity change, % at 61.4 µM; 290,000 tested, under 10 active; AID 1766, 2009; inconclusive = falling polarisation curve, or a change in total fluorescence; inactive = total fluorescence flat and polarisation flat or rising; no compound was filed as active; the % refers to the polarisation; negative = inhibition;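 further: % of control where 0% means no effect; inhibitors lower the polarisation; unlabelled MLL peptide was the positive control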
gsp ag: qHTS for Agonist of gsp, the Etiologic Mutation Responsible for Fibrous Dysplasia/McCune-Albright Syndrome: qHTS | Potency, µM (titrated, usually from 76.9 µM), without a hit: at the highest dose activation (cAMP increase), most hits filed as activators | 340,000 tested, 0.13% active | gsp mutant cells, cAMP HTRF, 30 min; control for the full effect not named in the record; active = well fitted activation curve with a large enough effect; inconclusive = small, poorly fitted or top-dose-only effect, or another doubt; inactive = no such curve, though single readings can be large or run the other way; cell line not stated here;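 further: phosphodiesterase inhibitor Ro 20-1724 added with compounds to block cAMP breakdown; potency means the concentration at half of the fitted maximal effect; nearly all actives have a fitted effect of over 60% in size; about a fifth of the inactives were tested at one dose only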
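Cells in DMEM/10% FBS with G418 were pretreated with compounds in DMSO plus […] (300 uM stock) for 30 min at 37C. cAMP was measured by HTRF (cAMP-d2 plus anti-cAMP antibody-K) after 30 min at room temperature.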
Sfp inh: qHTS Assay for Inhibitors of Bacillus subtilis Sfp phosphopantetheinyl transferase (PPTase); 4'-phosphopantetheinyl transferase ffp (Bacillus subtilis), Q9F4F7; Biochemical Sfp PPTase activity, qHTS; Potency, µM, for the others: max response, negative = inhibition, hits mostly inhibitors; 310,000 tested, 3.5% active; active means well fitted inhibition curve with a large enough effect; inconclusive means small, poorly fitted or top-dose-only effect, or another doubt; inactive means no such curve, though single readings can be large or run the other way;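 further: the enzyme is Sfp with the accession as filed and its product quenches rhodamine fluorescence; potency means the concentration at half of the fitted maximal effect; 0% = enzyme reaction without inhibitor and -100% = no enzyme wells; top concentration of the series not given in the record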
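Buffer: 50 mM Hepes-Na pH 7.6, 10 mM MgCl2, 0.01% Nonidet P-40, 0.01% BSA. Enzyme 15 nM, pre-exposed to compound 15 min; substrates then added and fluorescence change tracked over 30 min.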
TRPV1 potentiator: HTS Assay for Compounds that Act as Potentiators of the Vanilloid Receptor 1. Transient receptor potential cation channel subfamily V member 1 (Homo sapiens), Q8NER1. TRPV1-expressing cells, Fluo-8 calcium influx, capsaicin EC20 potentiation; host cell line not named in the record; control for the full effect not named in the record. potentiation, % at 8.33 µM. 320,000 tested, 0.02% active. AID 540277, 2011; active means potentiation above 80%; inconclusive means 30% to 80%; inactive means below 30%; further: 0% is about no effect
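Fluo-8 calcium influx in TRPV1-expressing cells, kinetic read (ex 480/em 520 nm). Compound added and read 3 min for agonist activity, followed by capsaicin at EC20 final and 2 min further read for enhancement.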
gsp antag: qHTS for Antagonists of gsp, the Etiologic Mutation Responsible for Fibrous Dysplasia/McCune-Albright Syndrome: qHTS; AID 624288, 2012; 340,000 tested, 0.4% active; Potency, µM (series often up to 76.9 µM), without a hit: at the highest dose activity change, negative = inhibition, hits mostly inhibitors; gsp-mutant cells, cAMP HTRF, 30 min; control for the full effect not named in the record; active = falling curve of any shape with a large fitted effect; inconclusive = falling curve, mostly with a smaller effect; inactive = flat or rising curve; cell line not stated here;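 further: intracellular cAMP measured with PDE inhibitor Ro 20-1724 present during compound exposure; potency means the concentration at half of the fitted maximal effect; on the % scale 0 is the no-effect control and ±100 the full control effect; nearly all actives have a fitted effect of over 65% in size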
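HTRF cAMP read-out (cAMP-d2 plus anti-cAMP antibody-K in lysis buffer, 30 min RT). Before lysis, cells are exposed to compounds with […] for 30 min at 37C in DPBS containing Ca/Mg, BSA and Tween 20.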
ClpP mod: qHTS Assay for Activators of ClpP | Potency, µM (series often up to 57.5 µM), for the others: at the highest dose activity change, negative = active | purified B. subtilis ClpP, FRET peptide cleavage, 20 min | 340,000 tested, 1.9% active | AID 651965, 2013; active = well fitted falling curve with a large enough effect; inconclusive = small, poorly fitted or top-dose-only effect; inactive = no such curve, though single readings can be large or run the other way; further: potency means the concentration at half of the fitted maximal effect; the source files actives as falling curves though it sought activators and does not explain the sign; nearly all actives have a fitted effect of over 65% in size; many hits overshoot -100%
Target sequence (P80244 whole entry, looked up): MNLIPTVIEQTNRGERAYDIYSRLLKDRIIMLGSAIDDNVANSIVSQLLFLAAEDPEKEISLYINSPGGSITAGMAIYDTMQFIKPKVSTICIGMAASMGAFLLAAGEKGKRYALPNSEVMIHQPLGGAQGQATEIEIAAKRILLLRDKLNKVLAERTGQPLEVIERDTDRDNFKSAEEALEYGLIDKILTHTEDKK
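ClpP 10 microg/mL final, pH 8 Tris/KCl buffer with BSA, glycerol, Tween-20; compound pinned in; FRET-FV substrate; RT 20 min; Ex320/Em430; ΔFRET vs ADEP 5.8 microM, DMSO, no enzyme.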
D2 potentiator: Beta-Arrestin HTS for Positive Allosteric Modulators of the Human D2 Dopamine Receptor: Potentiators | D(2) dopamine receptor (Homo sapiens), P14416 | DiscoveRx D2 beta-arrestin cells, luminescence, 90 min; 100% = 57 uM dopamine signal | potentiation, % (test concentration not listed) | 360,000 tested, 0.23% active; active = potentiation of 50% or more; inconclusive = 30% to 50%; inactive = 30% or less;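 further: compound concentration not given in the record; tested on top of an EC20 dose of dopamine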
Target sequence (P14416 whole entry, looked up): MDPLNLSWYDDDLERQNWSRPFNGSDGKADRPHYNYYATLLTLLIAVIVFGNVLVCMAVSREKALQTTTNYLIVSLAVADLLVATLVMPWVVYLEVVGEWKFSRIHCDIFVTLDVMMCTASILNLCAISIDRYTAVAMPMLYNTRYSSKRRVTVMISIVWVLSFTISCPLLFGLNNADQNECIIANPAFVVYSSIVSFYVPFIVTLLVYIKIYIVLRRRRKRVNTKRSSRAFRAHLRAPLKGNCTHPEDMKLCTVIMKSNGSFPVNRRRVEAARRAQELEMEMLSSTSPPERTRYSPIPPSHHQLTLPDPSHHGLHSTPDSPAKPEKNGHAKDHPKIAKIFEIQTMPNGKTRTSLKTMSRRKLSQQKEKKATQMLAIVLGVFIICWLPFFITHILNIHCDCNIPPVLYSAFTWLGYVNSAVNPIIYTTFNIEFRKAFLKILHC
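D2 cells co-treated with compound plus 50 nM dopamine (EC20) for 90 min at 37 deg C to detect potentiation. Beta-arrestin recruitment was read as enzyme-fragment luminescence after 1 h at ambient temperature. Full response was set by 57 uM dopamine.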
An asterisk follows results filed as active; ? = inconclusive; nt = no result given; & = joins results of further samples; [ ] = remark or other dose.

SMILES	Menin-MLL FL inh	gsp ag	Sfp inh	TRPV1 potentiator	gsp antag	ClpP mod	D2 potentiator
CCn1c(C)nnc1SCC(=O)Nc1ccc(C(C)=O)cc1	0.2	-16%	12%	9	0%	1.7%	-2
C=CCn1cc(/C=N\NC(=O)c2cc3c(ccc4ccccc43)o2)c2ccccc21	1.6	-27%	2%	nt	5%	-19%	-2
O=c1c2ccccc2ncn1-c1ccccc1[N+](=O)[O-]	1.7	5%	9%	9	7%	-1.8%	-1
CCOc1ccc2nc(SCC(=O)Nc3nonc3C)[nH]c2c1	1.0	-19%[15.4 µM]	-1%	1	-3%	?	-1
Cn1c(CNC(=O)c2ccc(Cl)cc2)nnc1SCC(=O)NC1CCCC1	4.2	14%	32%[activator]	-5	10%	nt	-5
O=C(Oc1ccc2c(c1)O/C(=C\c1ccncc1)C2=O)c1ccccc1	?	0%	-9%	-3	-4%	-2.1%	9
CCOC(=O)/C(C#N)=C/c1cc2ccccc2nc1N1CCOCC1	6.0	10%[15.4 µM]	-2%	-13	8%	-0.3%	-5
Cc1cccc2nc(-c3ccccc3)nc(N3CCC(O)(c4ccc(Cl)cc4)CC3)c12	-0.4	10%	4%	5	8%	14µM*	10
CC(C)(C)C(CO)NC(=O)c1ccc[nH]1 (stereo unspecified)	nt	-9%	nt	21	2%	0.3%	-4
Cc1c(Cl)cccc1NC(=O)CN1CCN(CCO)CC1	8.0	18%	11%	-16	1%	-1.6%	-6
CCSc1nnc(N)s1	1.5	27%	17%	-21	14%	-2.8%	-8
O=C(Cn1c(=O)n(CCC(=O)N2CCCCC2)c(=O)c2sccc21)NCc1ccccc1	1.0	69%	17%	9	11%	0.0%	-8
Cc1ccc(C)c(OCC(=O)N/N=C/c2c(C)nn(-c3ccccc3)c2Cl)c1C	0.5	-6%	27%	-5	4%	3.5%	-17
O=C(NCC(Cl)c1ccc2ccccc2c1)c1c(F)cccc1F (stereo unspecified)	-19	?	-27%	-1	0%	-1.7%	-13
CCOC(=O)CN1CC23C=CC(O2)C(C(=O)NCCc2ccccc2)C3C1=O (stereo unspecified)	-3.3	-3%	14%	-1	4%	-1.7%	-3

The closing five entries of the section before come first, to join the parts:
SMILES	Menin-MLL FL inh	gsp ag	Sfp inh	TRPV1 potentiator	gsp antag	ClpP mod	D2 potentiator
CCSc1nnc(N)s1	1.5	27%	17%	-21	14%	-2.8%	-8
O=C(Cn1c(=O)n(CCC(=O)N2CCCCC2)c(=O)c2sccc21)NCc1ccccc1	1.0	69%	17%	9	11%	0.0%	-8
Cc1ccc(C)c(OCC(=O)N/N=C/c2c(C)nn(-c3ccccc3)c2Cl)c1C	0.5	-6%	27%	-5	4%	3.5%	-17
O=C(NCC(Cl)c1ccc2ccccc2c1)c1c(F)cccc1F (stereo unspecified)	-19	?	-27%	-1	0%	-1.7%	-13
CCOC(=O)CN1CC23C=CC(O2)C(C(=O)NCCc2ccccc2)C3C1=O (stereo unspecified)	-3.3	-3%	14%	-1	4%	-1.7%	-3
c1ccc2c(c1)nc(Nc1ccc3c(c1)OCO3)c1nnnn12	4.7	-13%	2%	3	-4%	11%	-1
O=C(N/C(=C/c1cccnc1)C(=O)N1CCOCC1)c1ccccc1Br	0.2	?	14%	7	20%	-0.6%	-2
Cc1ccc(Nc2cc(C)nc(NCc3ccccc3)n2)cc1	0.3	-5%[15.4 µM]	13µM*	-6	-19%	nt	-9
COc1cc(C(=O)NNC(=O)COc2ccc(Cl)cc2)ccc1OCC(=O)N1CCOCC1	nt	-21%	nt	0	2%	1.1%	-6
O=C(c1ccco1)N1CCN(C(=O)C2CCN(S(=O)(=O)Cc3ccccc3)CC2)CC1	4.8	?	18%	-14	0%	1.7%	-22
Cc1ccc(NC(=O)CN2C(=O)NC(C)(c3ccc4c(c3)OCO4)C2=O)cc1 (stereo unspecified)	nt	21%[15.4 µM]	nt	nt	-10%	1.2%	-19
CCOC(=O)CN(c1cccc(C(C)=O)c1)S(C)(=O)=O	0.2	-4%	2%	-2	3%	-2.1%	-6
O=C(c1cccnc1)C1Cc2ccccc2C1=O (stereo unspecified)	5.6	-33%[inhibitor]	-29%	29	3%	0.7%	-23
CC(C/C=N/NC(=O)COc1cc(Cl)ccc1Cl)c1ccccc1 (stereo unspecified)	4.0	-29%	2%	-1	-15%	0.3%	3
O=c1ccc(-c2ccccc2)nn1Cc1ccc(F)cc1Cl	3.5	?	0%	-7	?	-2.1%&-4.8%	-7
CC(=O)Nc1cccc(C(=O)OC(C)C(=O)NC2CCCc3ccccc32)c1 (stereo unspecified)	nt	-2%[15.4 µM]	10%	9	-9%	-29%	-7
CC(C)=C1SC(N2CCN(c3cccc(Cl)c3)CC2)=NC1=O	5.5	-27%	-18%	-18	?	0.7%	-7
CCc1ccc(OCc2nnc(SCC(=O)NC3CCCCC3)o2)cc1	3.9	3%[15.4 µM]	7%	21	-9%	nt	-13
Cc1cccc(N(C(=O)Cn2nnc(-c3ccccc3F)n2)C(C(=O)NC(C)(C)C)c2ccncc2)c1 (stereo unspecified)	-4.7	-18%	14%	7	5%	nt	3
C=CCN(CC(=O)NCc1ccccc1)C(=O)c1csnn1	2.0	-35%[inhibitor]	13%	11	4%	-0.3%	-10
O=C(NCc1ccccc1)C1CCCN(S(=O)(=O)c2ccc(Br)cc2)C1 (stereo unspecified)	nt	-3%[15.4 µM]	13%	-10	-15%	1.6%	-21
NC1=NC(=O)/C(=C/c2cn(CCC(=O)O)nc2-c2ccc(Cl)cc2)S1	?	?	-6%	-50	10%	-7.9%	5
CN(Cc1cnn(Cc2ccccc2)c1)C(=O)c1cccc(S(=O)(=O)N2CCOCC2)c1	nt	?	nt	-4	20%	1.0%	-2
COCCNCC(O)CON=C1c2ccccc2-c2ccccc21 (stereo unspecified)	-0.6	-2%[15.4 µM]	14%	23	7%	-1.2%	-12
Cc1ccc2[nH]c(C)c(CCN(Cc3cccnc3)C(=S)NC(C)(C)C)c2c1	-0.3	-3%[15.4 µM]	-2%	16	-1%	-1.0%	-16
CCOC(=O)C1=C(CC)OC(N)=C(C#N)C1c1ccc(OC)cc1OC (stereo unspecified)	0.5	9%	11%	-12	-12%	-3.5%	-6
COc1ccccc1NC(=O)CN1CCN(C(=O)c2ccco2)CC1	5.8	5%	9%	-6	-7%	-1.8%	-21
COc1ccc(OCc2nnc(SC3CCOC3=O)n2-c2ccccc2)cc1 (stereo unspecified)	1.7	-35%[inhibitor]	10%	-9	-16%	0.1%	-8
CN(C)NC(=S)NC1(C)CCS(=O)(=O)C1 (stereo unspecified)	-1.9	17%	89µM*	-2	5%	nt	-3
CC(C)OC(=O)c1c(F)c(F)c(N2CCOCC2)c(F)c1F	-0.4	0%	4%	2	-9%	-0.9%	-1
C=CCOc1ccc(CNc2ccc(NC(=O)CCC)cc2)cc1OCC	0.1	3%	4%	-2	1%	7.7%	-1
COc1cccc(C(=O)NCCS(=O)(=O)N2CCN(C(=O)c3ccco3)CC2)c1	nt	3%[15.4 µM]	nt	7	4%	-1.5%	-16
COc1ccccc1-n1cnc2cc(C(=O)NCC3CCCO3)ccc21 (stereo unspecified)	4.3	12%	2%	5	-3%[15.4 µM]	2.8%	-27
NC1=NC[C@@H](Cc2ccc(O)cc2)N1CCc1cccc2ccccc12	3.6	24%	89µM*	-14	13%	-0.8%	-11
CCCCOc1ccc(Cc2n[nH]c(=S)n2N)cc1	-12	-4%[15.4 µM]	3%	8	-6%	0.6%	-3

Pulled by structure from the entries so far:
SMILES	Menin-MLL FL inh	gsp ag	Sfp inh	TRPV1 potentiator	gsp antag	ClpP mod	D2 potentiator
Cc1ccc2[nH]c(C)c(CCN(Cc3cccnc3)C(=S)NC(C)(C)C)c2c1	-0.3	-3%[15.4 µM]	-2%	16	-1%	-1.0%	-16
CCCCOc1ccc(Cc2n[nH]c(=S)n2N)cc1	-12	-4%[15.4 µM]	3%	8	-6%	0.6%	-3

Going on with the list.
SMILES	Menin-MLL FL inh	gsp ag	Sfp inh	TRPV1 potentiator	gsp antag	ClpP mod	D2 potentiator
Cc1cccc(C(=O)Nc2ccc3c(c2)C(=O)NC3=O)c1	0.3	-40%[inhibitor]	8%	-15	-1%	3.7%	-4
COc1ccc2[nH]c(C(=O)O)c(CCNC(=O)/C=C/c3ccc(O)c(OC)c3)c2c1	0.4	-21%	14%	5	-8%	-24%	-13
N#CCOC(=O)c1c2c(nc3ccccc13)CCC2	-0.3	11%[15.4 µM]	18%	-9	nt	nt	-4
CCC1=Nc2cc(C(=O)O)ccc2Sc2ccc(Cl)cc21	-0.9	-24%	20%	1	-15%	-3.9%	-9
CCOC(=O)c1cc2c(ccn2C)n1CC(=O)N1CCN(c2ccccc2)CC1	8.7	-2%	0%	0	-10%	-13%	-16
CCCCN1C(=O)CC(Sc2ncccc2C(=O)O)C1=O (stereo unspecified)	2.7	?	21%	-15	-3%	nt	0
Cc1ccc(NC(=O)OCc2cn(-c3ccc(Cl)cc3)nn2)cc1	0.7	6%	14%	18	4%	-3.1%	-11
CCCCc1ccc(NC(=S)Nc2cccnc2)cc1	3.4	-11%	-30%	-10	4%	-3.4%	0
O=C(CSc1ncnc2ccccc12)Nc1ccc2c(c1)OCO2	0.9	-11%	12%	0	0%	-1.6%	-10
CNc1nc(Cl)c(SC)c(NCc2ccc(F)cc2)n1	1.0	-36%[inhibitor]	15%	-3	0%	0.8%	-5

Rows were taken by chance. About 5.1% of those tested had a hit in this group.
